Lassa entry: Lassa virus entry inhibition; Lassa virus pseudotyped entry inhibition, cell-based qHTS; control for the full effect not named in the record; many of its hits are not listed in these tables; Potency, µM (highest dose often 49.2 µM), for inactives: top-dose activity change, negative = inhibition, most hits filed as inhibitors; hit rate 4.1% among 18,000; AID 720533; active = well fitted inhibition curve with a large enough effect; inconclusive = small, poorly fitted or top-dose-only effect; inactive = no such curve, though single readings can be large or run the other way; tested in HEK293 cells; further: luciferase read-out
MARV entry inh: blocks Marburg virus binding or cell entry; AID 720532; Potency, µM (highest dose often 49.2 µM), for inactives: at the highest dose activity change, negative = inhibition, actives largely listed as inhibitors; Marburg virus pseudotype entry/binding inhibition, cell-based; control for the full effect not named in the record; many of its hits are not listed in these tables; hit rate 6.5% among 18,000; active means well fitted inhibition curve with a large enough effect; inconclusive means small, poorly fitted or top-dose-only effect; inactive means no such curve, though single readings can be large or run the other way; tested in HEK293 cells; further: luciferase read-out
Starred values were filed as active, the others as inactive; ? = inconclusive; . = not tested or not shown; & = joins results of further samples; ! = not active in a repeat; [ ] = remark or other dose. On the % scale 0 is the no-effect control and ±100 the full control effect; potency means the concentration at half of the fitted maximal effect. Not all compounds are listed. The share of hits here may be higher or lower than overall.

Every second line gives: Lassa entry, MARV entry inh
1) CC(C)c1nc(CN(C)C(=O)N[C@H](C(=O)N[C@@H](Cc2ccccc2)C[C@H](O)[C@H](Cc2ccccc2)NC(=O)OCc2cncs2)C(C)C)cs1
    7.1µM*!, ?
2) CCCCCCCCOc1ccccc1C(=O)Nc1ccc(C(=O)OCC[N+](C)(CC)CC)cc1
    -20%, 1%
3) O=C(O)[C@H](O)[C@@H](O)[C@H](O)[C@H](O)CO
    -6%&-15%, -11%&14%
4) Oc1cc(Cl)c(Cl)cc1Cl
    -13%, -5%
5) CC(C)CC1C(=O)N(Cc2cn(CC3CCCCC3)nn2)CCS(=O)(=O)N1Cc1ccc(-c2ccncc2)cc1 (configuration not stated)
    ?, ?
6) CCOc1cc(OCC)c(C(=O)CCC(=O)O)cc1OCC
    -18%, -23%
7) OCCCBr
    -15%[107 µM], 14%[107 µM]
8) COc1ccc2c(c1)[C@]1(C)CCC(=O)C[C@H]1CC2
    18%, 4%
9) O=[N+]([O-])c1ccc(O)c([N+](=O)[O-])c1
    0%, 21%
10) C1=CC2C3C=CC(C3)C2C1 (configuration not stated)
    5%[107 µM], 26%[107 µM]
11) CC(=O)OC1CC[C@@]2(C)C(CC[C@@]3(C)C2CC=C2C4CC(C)(C)CC[C@]4(C)CC[C@@]23C)C1(C)C (some centres not stated)
    -19%, 13%
12) COC(=O)[C@@]1(C=C[C@@H](C)[C@H](OC)c2ccccc2Br)[C@@H]2OCCC[C@@H]21
    -8%[8.59 µM], -4%[8.59 µM]
13) COc1ccc(-c2ccc(-c3cc(=O)oc4c(C(C)C)ccc(C)c34)cc2)cc1
    3%, ?
14) CCCCCC(=O)N1C[C@H](O)[C@@H](n2cc(-c3ccc(F)cc3)nn2)C[C@H]1c1ccccc1
    -11%, -29%
15) COc1ccccc1CC(=O)NCC1Cc2cc(F)cc(-c3cncnc3)c2O1 (configuration not stated)
    -24%, 3%
16) CCCCCN(CCCCC)C(=O)[C@H](CCC(=O)O)NC(=O)c1ccc(Cl)c(Cl)c1
    -6%[17.8 µM], 13%[17.8 µM]
17) NCCCC[C@H](NC(=O)[C@@H]1CCCN1C(=O)[C@H](CO)NC(=O)[C@H](CC(=O)O)NC(=O)CNC(=O)[C@H](CCCN=C(N)N)NC(=O)CN)C(=O)O
    -13%, 3%
18) CCc1nc2cc(C(=O)NCC3CCS(=O)(=O)C3)cc(NC(=O)c3ccccc3OC)c2n1C (configuration not stated)
    31%[activator], -8%
19) CCN1C(=O)[C@@H]2[C@H]3[C@H](O)[C@H](O)CC(=NOC[C@H]4O[C@H](c5ccccc5)C=C[C@H]4Oc4ccc(OC)cc4)[C@@H]3CC[C@H]2C1=O
    -11%[8.59 µM], -28%[8.59 µM]
20) O=c1cc(-c2ccccc2Cl)oc2c(Br)ccc(O)c12
    26%, 43%[activator]

Quoted at random: 4 compounds from above, in no set order.
Every second line gives: Lassa entry, MARV entry inh
16) CCCCCN(CCCCC)C(=O)[C@H](CCC(=O)O)NC(=O)c1ccc(Cl)c(Cl)c1
    -6%[17.8 µM], 13%[17.8 µM]
9) O=[N+]([O-])c1ccc(O)c([N+](=O)[O-])c1
    0%, 21%
17) NCCCC[C@H](NC(=O)[C@@H]1CCCN1C(=O)[C@H](CO)NC(=O)[C@H](CC(=O)O)NC(=O)CNC(=O)[C@H](CCCN=C(N)N)NC(=O)CN)C(=O)O
    -13%, 3%
15) COc1ccccc1CC(=O)NCC1Cc2cc(F)cc(-c3cncnc3)c2O1 (configuration not stated)
    -24%, 3%

More results.
Every second line gives: Lassa entry, MARV entry inh
21) CCOC(=O)C1=C(N)Oc2ccc(Br)cc2[C@@H]1[C@@H](C#N)C(=O)OCC
    20µM*, 24%
22) CC(=O)OC[C@H]1O[C@H](C#CC2=CCCCC2)C=C[C@H]1OC(C)=O
    14%[8.59 µM], -21%[8.59 µM]
23) COc1ccc(-c2cccc(-c3cc(=O)oc4cc5c(cc34)OCO5)c2)cc1
    4%, 20%
24) CC(C)[C@H](N)C(=O)OCC(CO)OCn1cnc2c(=O)[nH]c(N)nc21 (some centres not stated)
    -15%, -11%
25) NCC(CP(=O)(O)O)c1ccc(Cl)cc1 (configuration not stated)
    -1%, 17%
26) CC(=O)OC1CC(OC(C)=O)[C@]2(C)C(CC(OC(C)=O)[C@]3(C)C2CC[C@@]2(C)C(c4ccoc4)OC(=O)C4O[C@]432)C1(C)C (some centres not stated)
    3%, -30%
27) COC(=O)C1=C(C)N(Cc2ccco2)C(=O)N[C@H]1c1ccc(Br)cc1
    -9%, 6%
28) C[C@@H](O)[C@H]1C(=O)N2C(C(=O)O)=C(S[C@@H]3CN[C@H](CNS(N)(=O)=O)C3)[C@H](C)[C@H]12
    -5%, 19%
29) COc1cccc(-c2cc(=O)c3cc(NC(=O)c4ccccc4)ccc3[nH]2)c1
    ?, 7.1µM*
30) COC(=O)C1=C(C)N(CCC(C)O)C(=O)N(C(C)=O)C1c1ccccc1 (configuration not stated)
    -13%[8.59 µM], 5%[8.59 µM]
31) COc1ccc2c(c1)O[C@@H](c1ccc3c(c1)OCO3)[C@H](OC(=O)NC1CCCC1)C2=O
    -3%, 19%
32) Cc1ccc(C(=O)Cn2c3c(sc2=N)CCCC3)cc1
    ?, ?
33) Clc1nccc2c1ccc1ccccc12
    8%, 9%
34) CC(C)Cc1cc(C(=O)NCC2Cc3cc(F)cc(-c4ccccn4)c3O2)no1 (configuration not stated)
    -1%, -28%
35) O=S(=O)(N[C@@H](CO)Cc1ccccc1)c1ccc(Br)cc1F
    10%, 22%
36) COc1cccc(-c2ccnc(-n3ncc(C(=O)NCc4cccnc4)c3C3CC3)n2)c1
    -22%, -24%
37) Cc1cnc(C(=O)NCc2c(C)ncc3c2CCN(C(=O)/C=C/c2cccs2)C3)cn1
    -4%, -15%
38) CC(C)[C@H]1CC[C@@H](C)C[C@H]1O
    -11%, -13%
39) COC(=O)CCCC1=CC2=CC(=O)C(C)(OC(=O)c3cnc4ccccc4n3)C(=O)C2=CO1 (configuration not stated)
    -7%, 5%
40) COc1cc2c3cc1Oc1c(OC)c(OC)cc4c1[C@@H](Cc1ccc(O)c(c1)Oc1ccc(cc1)C[C@@H]3N(C)CC2)N(C)CC4
    11µM*, 2.8µM*
41) COC1C(O)C(OC2CC[C@]3(C=O)C4C(OC(C)=O)C[C@@]5(C)C(C6=CC(=O)OC6)CC[C@]5(O)C4CC[C@]3(O)C2)OC(C)C1OC(C)=O (some centres not stated)
    0%, -13%
42) COc1cc(OC)c(OC)cc1CN1CCOc2ccc(CN3C[C@@H](C)O[C@@H](C)C3)cc2C1
    -2%, -22%
43) COc1cc(C2CC(=O)Oc3ccc(C(C)(C)C)cc32)cc(OC)c1OC (configuration not stated)
    -9%, 10%
44) O=C1C2=C(C(=O)c3ccccc31)[C@H]1O[C@](CCCCN3C(=O)c4ccccc4C3=O)(Cc3ccccc31)O2
    -6%[8.59 µM], 41%[activator][8.59 µM]
45) COCCN1C(=O)NC(c2ccc(Br)cc2)C(C(=O)OC)=C1C (configuration not stated)
    -26%[8.59 µM], -8%[8.59 µM]
46) Oc1cc(-c2nc3ccccc3s2)cc2c1OCCN(Cc1cccn1-c1nccs1)C2
    -23%, -9%
47) Cc1cc(C)c2c(CN3CCCCCCC3)cc(=O)oc2c1
    4%, 26%
48) O=C(Cn1cnnn1)N[C@@H]1C(=O)N2C(C(=O)O)=C(CSc3nncs3)CS[C@H]12
    -10%&-4%, 3%&18%
49) CCCCN(CC)CCOc1cccc2ccccc12
    ?, 10µM*
50) CCC1=CC2CN3CCc4c([nH]c5ccccc45)[C@@](C(=O)OC)(C2)[C@@H]13
    ?, 7.9µM*
51) COc1ccc2c(=O)cc(-c3ccc(O)cc3)oc2c1
    -27%, 56%[activator]
52) CC1=CC(=O)C2=C(C)C[C@H](OC(=O)Cc3ccccc3)C3[C@H](OC(=O)[C@H]3C)C12 (some centres not stated)
    -4%, 2%
53) c1cncc(CNc2ncnc3ccc(-c4cccnc4)cc23)c1
    -28%, 3%
54) O=C(Cn1cc(COc2ccc(-c3ccc(Br)cc3)cc2)nn1)c1ccc(O)cc1
    ., -8%
55) Cc1cc(=O)[nH]c(=S)[nH]1
    -5%, 8%
56) CC(=O)OC1CC[C@]2(C)C(=CCC3C4CCC(C(C)CCCC(C)C)[C@]4(C)CCC32)C1 (some centres not stated)
    -9%, -1%
57) Cc1cnc(-n2ncc(C(=O)NCC3CCCN(C)C3)c2C)nc1-c1cccs1 (configuration not stated)
    -8%, -16%
58) Cc1nc(-c2ccccc2)n2nc(NCCCN3CCOCC3)ncc12
    ., -29%
59) Cc1c(C(=O)NC2CCCCC2)sc2ncnc(NCCN(C)C)c12
    -4%, ?
60) NC(=O)c1cccc(N)c1
    -15%&5%&-12%, -6%&4%&0%

By substructure: those above containing a furan ring, fused or not (2)
Every second line gives: Lassa entry, MARV entry inh
26) CC(=O)OC1CC(OC(C)=O)[C@]2(C)C(CC(OC(C)=O)[C@]3(C)C2CC[C@@]2(C)C(c4ccoc4)OC(=O)C4O[C@]432)C1(C)C (some centres not stated)
    3%, -30%
27) COC(=O)C1=C(C)N(Cc2ccco2)C(=O)N[C@H]1c1ccc(Br)cc1
    -9%, 6%

(cont.)
Every second line gives: Lassa entry, MARV entry inh
61) COc1ccccc1C1CN(Cc2cccc(O)c2)Cc2ccccc2O1 (configuration not stated)
    -22%, -4%
62) c1ccc2c(Cc3c[nH]c4ccccc34)c[nH]c2c1
    -13%&-12%&3%&2%, 8%&-21%&-25%&-2%
63) COc1cccc2c1[C@@H]1CN(CCCCn3c(=O)[nH]c4c(sc5ncc(-c6ccccc6)nc54)c3=O)C[C@@H]1CO2
    -4%, 10µM*
64) COCCN1C(=O)N[C@H](c2cccc(C(F)(F)F)c2)C(C(=O)OC)=C1C
    -2%, -10%
65) CCn1ccnc1CC1COc2ccccc2O1 (configuration not stated)
    -11%, 3%
66) Cc1cnc(-n2ncc(C(=O)N3CCN(C(C)C)CC3)c2-c2ccco2)nc1-c1ccc(F)cc1
    6%, -10%
67) C#CCCCCCCCCCCCCCCCC(=O)O
    1%&-13%&-11%, 22%&12%&-2%
68) CCN1C(=NCCc2ccccn2)NC(c2cccc(C(F)(F)F)c2)C(C(=O)OC)=C1C (configuration not stated)
    33%[activator][8.59 µM], -20%[8.59 µM]
69) CCCCC(CC)COC(=O)CC(C(=O)OCC(CC)CCCC)S(=O)(=O)O (configuration not stated)
    ?, 15%&13%&11%
70) CC(=O)OCC1=C(C(=O)O)N2C(=O)[C@@H](NC(=O)Cc3ccccc3)[C@H]2SC1
    -7%, -20%
71) O=S1(=O)CC(N2CCN(CC3CC3)CC2)CN1Cc1ccc(F)cc1 (configuration not stated)
    -21%, 9%
72) CSc1nc(NC(C)C)nc(NC(C)C)n1
    -10%, ?
73) CC(=O)c1ccc(F)c(-c2cc(C)cc3c2OC(CNC(=O)C(C)n2nc(C)cc2C)C3)c1 (configuration not stated)
    -26%, -4%
74) CON
    0%, -9%
75) O=C1[C@@H]2[C@@H](C(=O)N1CC(O)COCc1ccccc1)[C@H]1C=C[C@@H]2C1 (some centres not stated)
    -22%, 7%
76) CC(C)[C@H](NC(=O)[C@H](CC(=O)O)NC(=O)CNC(=O)[C@@H](N)CCCN=C(N)N)C(=O)O
    -4%, 1%
77) CN(C(=O)c1cnn(-c2ncc3c(n2)-c2ccccc2CCC3)c1C1CC1)C1CCOC1 (configuration not stated)
    -8%, 29%
78) Cc1ccc(CN2CCc3nnc(C(NS(C)(=O)=O)C(C)C)n3CC2)cc1C (configuration not stated)
    4%, 18%
79) CCCC(=O)Nc1ncnc2c1ncn2[C@@H]1O[C@@H]2COP(=O)(O)O[C@H]2[C@H]1OC(=O)CCC
    7%&-19%&3%, 28%&-1%&5%
80) COCOCCn1cc(CN2CCS(=O)(=O)N(Cc3ccc(-c4ccc(Cl)nc4)cc3)C(CC(C)C)C2=O)nn1 (configuration not stated)
    1%, 31%
81) N=C(N)c1ccc(OCCCOc2ccc(C(=N)N)cc2)cc1
    -7%, -20%
82) COc1cc2c(cc1OC)-c1c(OC)c(OC)c(CO)c3c1C(C2)N(C)CC3 (configuration not stated)
    -11%, ?
83) CN1CCN(C(=O)O[C@@H]2c3nccnc3C(=O)N2c2ccc(Cl)cn2)CC1
    7%, 9%
84) COc1cccc(O)c1O
    ?, 13µM*
85) C[C@]12C[C@@](C)(C=C1/C=C/c1ccccc1)C(=O)C[C@H]2c1ccccc1
    9%, -17%
86) CO[C@@]1(NC(=O)C2SC(=C(C(N)=O)C(=O)O)S2)C(=O)N2C(C(=O)O)=C(CSc3nnnn3C)CS[C@@H]21 (some centres not stated)
    2%[17.8 µM], 1%[17.8 µM]
87) COc1ccc(-c2cc(=O)c3cc(F)ccc3[nH]2)cc1
    -7%, -2%
88) Cc1cc2c(cc1Cl)C(c1ccccc1C)CC(=O)O2 (configuration not stated)
    -19%, 6%
89) O=P(O)(O)OC(Cn1cncn1)(Cn1cncn1)c1ccc(F)cc1F
    -12%, 1%
90) NNc1nnc(Cc2ccncc2)c2ccccc12
    -16%, 11µM*
91) COc1cc(/C=C(\C#N)C(=O)c2ccc(O)c(O)c2)cc(I)c1O
    22%, 25%
92) Cc1[nH]c(C)c(Cl)c(=O)c1Cl
    -9%, 6%
93) Cc1cccc(CN2[C@H](COCc3ccccc3)C=CS2(=O)=O)c1
    -27%, -20%
94) Cc1ncc2c(c1CNC(=O)c1ccc3c(c1)OCO3)CCN(C(=O)C1Cc3ccccc3O1)C2 (configuration not stated)
    -7%, 8%
95) CC1(C)N=C(N)N=C(N)N1c1ccc(Cl)cc1
    11µM*, 7.1µM*
96) COCCNC(=O)COc1ccc(OCCNC[C@@H](O)COc2ccccc2)cc1
    -5%, -15%
